Marburg entry inh: inhibitors of Marburg virus binding or cell entry; Marburg virus pseudotyped entry inhibition, cell reporter; control for the full effect not named in the record; about a third of the inactives were read at about 46 µM; Potency, µM (highest dose often 37.8 µM), for inactives: top-dose activity change, negative = inhibition, usual class: inhibitors; actives 1.8% (n = 300,000); active = well fitted inhibition curve with a large enough effect; inconclusive = small, poorly fitted or top-dose-only effect, or effect the other way; inactive = flat fitted curve, though single readings scatter; tested in HEK293 cells; about a fifth of its hits are not listed in these tables; further: on the % scale 0 is the no-effect control and ±100 the full control effect; luciferase read-out
Lassa entry inh: Lassa virus entry inhibition; Lassa virus pseudotype entry inhibition, cell reporter; control for the full effect not named in the record; Potency, µM (titrated, usually from 37.9 µM), without a hit: top-dose activity change, negative = inhibition, actives largely listed as inhibitors; actives 1.2% (n = 300,000); AID 540256; active means well fitted inhibition curve with a large enough effect; inconclusive means small, poorly fitted or top-dose-only effect, or effect the other way; inactive means flat fitted curve, though single readings scatter; tested in HEK293 cells; further: on the % scale 0 is the no-effect control and ±100 the full control effect; nearly all actives have a fitted effect of over 50% in size; luciferase read-out
RE007 growth inh: less growth of the S. pombe RE007 Vpr strain. actives 0.21% (n = 360,000). AID 651644. S. pombe RE007 Vpr strain, BacTiter-Glo ATP luminescence, 24 h; control for the full effect not named in the record. Potency, µM (series often up to 92.2 µM), without a hit: top-dose activity change, negative = less growth; active = well fitted falling curve with a large enough effect; inconclusive = small, poorly fitted or top-dose-only effect; inactive = no such curve, though single readings can be large or run the other way;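 further: on the % scale 0 is the no-effect control and ±100 the full control effect; nearly all actives have a fitted effect of over 50% in size; the assay follows cell death caused by Vpr and the record does not say whether a fall means rescue or toxicity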
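Fission yeast strain RE007, carrying one chromosomally integrated HIV-1 vpr copy, was seeded at OD 0.01 in PMG+AL medium with 23 nL pinned compound. After 24 h at 30 °C and 99% humidity, viability was read by BacTiter-Glo luminescence.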
Cruzain inh Det: blocks cruzain activity in presence of Triton detergent. AID 1478. Potency, µM, for the others: max response, negative = inhibition, usual class: inhibitors. P25779. purified cruzain, Z-FR-AMC fluorescence, 0.01% Triton. actives 0.43% (n = 200,000); active means well fitted curve in the direction sought with a large enough effect; inconclusive means small, poorly fitted or top-dose-only effect, or another doubt; inactive means no such curve, though single readings can be large; an effect the other way counts as inactive or inconclusive;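 further: plate controls were neutral wells for no effect and buffer without enzyme for full effect; nearly all actives have a fitted effect of over 40% in size; top concentration of the series not given in the record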
Target sequence (P25779 123-467 limits assumed): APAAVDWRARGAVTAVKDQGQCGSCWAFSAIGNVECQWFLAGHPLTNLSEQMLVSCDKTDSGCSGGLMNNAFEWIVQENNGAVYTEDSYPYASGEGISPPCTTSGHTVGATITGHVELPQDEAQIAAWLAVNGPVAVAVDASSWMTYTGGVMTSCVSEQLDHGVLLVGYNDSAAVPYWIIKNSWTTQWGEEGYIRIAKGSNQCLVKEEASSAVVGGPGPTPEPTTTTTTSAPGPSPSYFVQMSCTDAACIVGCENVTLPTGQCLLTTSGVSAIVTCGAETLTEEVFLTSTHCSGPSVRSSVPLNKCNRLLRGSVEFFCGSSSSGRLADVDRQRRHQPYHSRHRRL
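Detergent-containing arm of a paired screen for aggregation-based inhibition: 0.01% Triton X-100 present. Cruzain at 1.5 nM cleaved 2 uM Z-FR-AMC at pH 5.5 with 5 mM DTT; AMC fluorescence gain over 60 s measured activity.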
SARS PLpro yeast: blocks SARS-CoV papain-like protease in a yeast assay; S. cerevisiae expressing SARS-CoV PLpro, growth rescue; control for the full effect not named in the record; actives 0.19% (n = 330,000); Potency, µM (series often up to 32.9 µM), inactives show at the highest dose activity, positive = growth rescue; further: 0% is about no effect; nearly all actives have a fitted effect of over 55% in size; growth read by luminescence after 48 h
NS1 function inh: blocks influenza NS1 protein function. actives 0.4% (n = 270,000). AID 2326. S. cerevisiae slowed by influenza A NS1, growth recovery by OD600. Potency, µM (highest dose often 46.1 µM), inactives show at the highest dose activity, positive = more growth; further: actives are rising curves; nearly all actives have a fitted effect of over 50% in size
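A cell-based growth assay was used: compounds that relieve NS1-induced slow growth of budding yeast raise OD600. Assay medium was yeast nitrogen base with ammonium sulphate and -URA supplement, pH 6.0, with 2% galactose.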
2A StopGo: lowers the luciferase signal of an FMDV 2A StopGo reporter. AID 1159524. Potency, µM (highest dose often 57.9 µM), inactives show top-dose signal change, negative = less light. actives 1.2% (n = 410,000). human cells with a luciferase reporter of 2A StopGo recoding; control for the full effect not named in the record; active = well fitted falling curve with a large enough effect; inconclusive = small, poorly fitted or top-dose-only effect; inactive = no such curve, though single readings can be large or run the other way; tested in HEK293T cells; further: on the % scale 0 is the no-effect control and ±100 the full control effect; nearly all actives have a fitted effect of over 45% in size; luciferase light after 4 h
Cruzain noTriton: inhibitors of Trypanosoma cruzi cruzain without detergent. P25779. purified cruzain, Z-FR-AMC fluorescence, no detergent. Potency, µM, inactives show max response, negative = inhibition, actives largely listed as inhibitors. actives 2.3% (n = 200,000). AID 1476; active means well fitted curve in the direction sought with a large enough effect; inconclusive means small, poorly fitted or top-dose-only effect, or another doubt; inactive means no such curve, though single readings can be large; an effect the other way counts as inactive or inconclusive;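 further: plate controls were enzyme without inhibitor for no effect and buffer without enzyme for full effect; nearly all actives have a fitted effect of over 40% in size; top concentration of the series not given in the record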
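Detergent-free condition (0.00005% Triton X-100) in acetate buffer pH 5.5 with DTT. 1.5 nM enzyme and compound were pre-mixed 15 min, then 2 uM Z-FR-AMC substrate added; reaction progress from fluorescence change between first and third reads (60 s).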
Numbers without * were called inactive; ? = inconclusive; . = not tested or not shown; [ ] = remark or other dose. Unless noted, the call rests on the fitted dose curve; in most records, active means well fitted rising curve with a large enough effect; inconclusive means small, poorly fitted or top-dose-only effect; inactive means no such curve, though single readings can be large or run the other way. Potency means the concentration at half of the fitted maximal effect.

#1 COc1ccc(Cl)cc1N(CC(=O)NC1CC2CCC1C2)S(=O)(=O)c1ccccc1 (stereo not given)
#2 COc1cccc2cc(C(C)N(CCCN3CCOCC3)C(=S)Nc3ccc(C)cc3)oc12 (stereo not given)
#3 CCn1c(CCCNC(=O)c2cccs2)nc2ccccc21
#4 O=C1CCn2nc(-c3ccc(Cl)cc3)cc2N1
#5 N#CCC(=O)Nc1ccc(C(=O)OCC(=O)NC(=O)NCc2ccco2)cc1
#6 COc1ccc(/C=N/n2c(COc3ccccc3)n[nH]c2=S)cc1OC

assay / compound	1	2	3	4	5	6
Marburg entry inh	?	?	.	9%	15%	26%
Lassa entry inh	?	?	.	-5%	4%	?
RE007 growth inh	13%	-8%	-2%	0%	-20%	-3%
Cruzain inh Det	.	.	3.2%	-1.2%	.	.
SARS PLpro yeast	-8%	0%	1%	-13%	1%	-1%
NS1 function inh	-4%	.	-5%	-21%	.	4%
2A StopGo	-27%	-22%	-24%	57%[activator]	5%	8%
Cruzain noTriton	.	.	5%	0%	.	.

Among those listed so far, these contain an aryl methoxy group:
#1 COc1ccc(Cl)cc1N(CC(=O)NC1CC2CCC1C2)S(=O)(=O)c1ccccc1 (stereo not given)
#2 COc1cccc2cc(C(C)N(CCCN3CCOCC3)C(=S)Nc3ccc(C)cc3)oc12 (stereo not given)
#6 COc1ccc(/C=N/n2c(COc3ccccc3)n[nH]c2=S)cc1OC

assay / compound	1	2	6
Marburg entry inh	?	?	26%
Lassa entry inh	?	?	?
RE007 growth inh	13%	-8%	-3%
Cruzain inh Det	.	.	.
SARS PLpro yeast	-8%	0%	-1%
NS1 function inh	-4%	.	4%
2A StopGo	-27%	-22%	8%
Cruzain noTriton	.	.	.

The listing picks up with the 2 entries that preceded the break.
#5 N#CCC(=O)Nc1ccc(C(=O)OCC(=O)NC(=O)NCc2ccco2)cc1
#6 COc1ccc(/C=N/n2c(COc3ccccc3)n[nH]c2=S)cc1OC
#7 Cc1cccc(Nc2nnc(SCC(=O)Nc3ncc(C(F)(F)F)cc3Cl)s2)c1C
#8 Cc1cc(C)nc(-n2ncc3c2CC(C)CC3=O)n1 (stereo not given)
#9 NC(=O)C1CCN(CC(=O)Nc2cc(Cl)ccc2Oc2ccccc2)CC1
#10 Cc1cc2c(cc1S(=O)(=O)Nc1cccc(C)c1C)n(C)c(=O)c(=O)n2C
#11 CC(C)C(NC(=O)c1ccc(Br)cc1)C(=O)NC1=NCCS1 (stereo not given)
#12 CC1CCN(c2nc3c(c(=O)[nH]c(=O)n3C)n2Cc2ccccc2Cl)CC1

assay / compound	5	6	7	8	9	10	11	12
Marburg entry inh	15%	26%	?	10%	-3%[46.1 µM]	.	.	.
Lassa entry inh	4%	?	-1%	-1%	-5%[46.1 µM]	.	.	.
RE007 growth inh	-20%	-3%	-6%	0%	-22%	-4%	1%	0%
Cruzain inh Det	.	.	-14%	.	.	.	.	-6.2%
SARS PLpro yeast	1%	-1%	-6%	0%	0%	-2%	-4%	-12%
NS1 function inh	.	4%	8%	2%	.	5%	-2%	-43%
2A StopGo	5%	8%	?	2%	-1%	-5%	-24%	?
Cruzain noTriton	.	.	7%	.	.	.	.	1%

#13 CCc1nnc(NC(=O)CSc2nccn2Cc2ccc(F)cc2)s1
#14 COc1cccc(OCc2nn[nH]n2)c1
#15 Cc1ccc(S(=O)(=O)NCC(=O)OCc2csc(-c3ccccc3)n2)cc1
#16 Cc1ccsc1C(C(=O)NCc1ccccc1)N(C(=O)c1csnn1)c1ccccc1 (stereo not given)
#17 Clc1ccc(Nc2nc(NCCN3CCOCC3)nc(N3CCOCC3)n2)cc1
#18 CCOc1cc(N2CCOCC2)c(OCC)cc1NC(=O)CN1CCN(Cc2ccc3c(c2)OCO3)CC1

assay / compound	13	14	15	16	17	18
Marburg entry inh	.	-36%	8%	1%[46.1 µM]	2.8µM*	-5%[46.1 µM]
Lassa entry inh	15%[46.1 µM]	?	11%	9%	?	19%[46.1 µM]
RE007 growth inh	.	4%	5%	58%	5%	-10%
Cruzain inh Det	2.7%	.	-11%	.	-1.8%	.
SARS PLpro yeast	.	2%	-6%	-5%	0%	1%
NS1 function inh	.	12%	-43%	0%	-7%	6%
2A StopGo	-16%	-4%	12%	-8%	-45%	36%[activator]
Cruzain noTriton	22%	.	-20%	.	-7%	.

Next section:
Screens in order – Marburg entry inh	Lassa entry inh	RE007 growth inh	Cruzain inh Det	SARS PLpro yeast	NS1 function inh	2A StopGo	Cruzain noTriton
19) COc1ccc(-c2noc(-c3ccc(NC4CCCC4)c([N+](=O)[O-])c3)n2)cc1
 : -18%[46.1 µM]	-2%[46.1 µM]	.	-1.5%	.	.	3%	-8%
20) CN1CCN(NC(=O)/C=C/c2cccc([N+](=O)[O-])c2)CC1
 : 12%[46.1 µM]	?	-5%	.	-2%	3%	-6%	.
21) CCOC(=O)c1cnc2oc3ccccc3n2c1=O
 : -7%	1%	-20%	.	.	17%	57%[activator]	.
22) COc1ccc(-n2c(C(C)(C)C)csc2=Nc2c(C)n(C)n(-c3ccccc3)c2=O)cc1
 : -4%	6%	-5%	0.8%	7%	4%	-16%	0%
23) CN1C(=O)/C(=C/C=C2\SCCN2C)N(C)C1=S
 : -24%[46.1 µM]	?	-6%	.	1%	.	35%[activator]	.
24) Cc1ccc2c(c1)c1nnc(SCC(=O)Nc3cccc(Cl)c3C)nc1n2CC(=O)O
 : -9%[46.1 µM]	?	29%	.	0%	.	57%[activator]	.
25) COc1ccc2cc[nH]c2c1
 : 5%	?	-5%	.	-3%	.	-4%	.
26) CCC(=O)N(Cc1cc2c(C)cc(C)cc2[nH]c1=O)C1CCCCC1
 : -13%	-7%	2%	1.9%	3%	1%	0%	-1%
27) Cn1c(C(=O)N2CCN(Cc3ccccc3)CC2)cc2c(=O)n(C)c3ccccc3c21
 : .	.	-2%	-5.7%	7%	-10%	?	-4%
28) COc1ccc(NC(=S)N2CCN(C(c3ccccc3)c3ccccc3)CC2)c(OC)c1
 : ?	?	-1%	.	-2%	10%	?	.
29) CCNC(=O)COc1cc(C)c(Br)c(C)c1
 : ?	6%[46.1 µM]	7%	.	-1%	-3%	-17%	.
30) Cc1nn(C)c(Oc2ccc(Cl)cc2)c1C=O
 : -1%	-23%	28%	4.4%	5%	0%	-7%	1%
31) CCOc1ccc(N2CC(C(=O)Nc3cccc(S(=O)(=O)N4CCCCC4)c3)CC2=O)cc1 (stereo not given)
 : ?	-14%	-5%	.	1%	.	?	.
32) Cc1cc(NCc2ccccc2Cl)n2nnnc2n1
 : 8%[46.1 µM]	5%	1%	-3.9%	-6%	?	-21%	?
33) O=C(NN1C(=O)C2C3C=CC(C3)[C@H]2C1=O)c1cccnc1 (stereo not given in full)
 : -27%	5%	17%	-2.2%	?	-9%	-4%	-4%
34) COCCN(CC1CCCN(C2Cc3ccccc3C2)C1)C(=O)c1cccs1 (stereo not given)
 : -3%[46.1 µM]	27%[46.1 µM]	-15%	.	-7%	-6%	14%	.
35) Cc1nc2nc(CCNS(=O)(=O)c3ccc(Cl)cc3)cn2nc1C
 : .	.	-3%	.	8%	-3%	0%	.
36) CCc1c(O)nc(SCC(=O)NC(C)(C)C)n(-c2ccccc2)c1=O
 : -7%[46.1 µM]	-14%	-4%	4.4%	1%	6%	-3%	-1%
37) CC(C)N(C(=O)CSc1nn2c(=O)c(C(C)(C)C)nnc2s1)c1ccccc1
 : ?	?	24%	-6.1%	-3%	-5%	-29%	19%
38) CC(NCc1ccc(Cl)cc1Cl)C(O)c1ccccc1 (stereo not given)
 : -19%	2%	-3%	2.5%	3%	-9%	35%[activator]	-2%
39) Cc1nnc(SCc2nnc(-c3ccccc3Br)o2)s1
 : 10%[46.1 µM]	5%	20%	.	-1%	.	68%[activator]	.
40) C=C(C)C(=O)Nc1cccc(C2=NOC3(C2)C[C@H](C(N)=O)N(C(=O)C(c2ccccc2)c2ccccc2)C3)c1 (stereo not given in full)
 : .	.	9%	.	0%	-1%	-5%	.
41) Nc1nc(-c2ccc(Br)s2)c(Br)s1
 : 9%[46.1 µM]	22%	?	-11%	-14%	-49%	39%[activator]	-23%
42) CC(=O)c1sc(NC(=O)CCS(=O)(=O)c2ccccc2)nc1C
 : .	.	10%	.	-7%	4%	0%	.
43) CCOc1c2ccc(C(=O)NCc3cc(C(F)(F)F)cc(C(F)(F)F)c3)cc2nn1C
 : -2%	.	0%	-3.8%	-16%	4%	-20%	?
44) ClC1(Cl)CC1CSc1nc2ccccc2[nH]1 (stereo not given)
 : -1%[46.1 µM]	.	-16%	.	-17%	.	39%[activator]	.
45) CCOC(=O)N1CCN(C(=O)COC(=O)CSc2cc(C)c(Br)cc2C)CC1
 : 14%[46.1 µM]	-8%	2%	.	-2%	.	-4%	.
46) Cc1ccc(C(=O)Oc2ccc3c(c2)ncn3C)cc1
 : -9%	10%	6%	1.7%	-17%	-51%	.	-2%
47) Cc1csc(C2=C(O)CN(CCc3ccccc3)C2=N)n1
 : 1%	23%	-1%	4.3%	4%	-8%	.	-11%
48) COc1cc(NC(=O)c2ccc(F)cc2)c(OC)cc1NC(=O)CN1CCCCC1
 : .	-15%	-2%	.	6%	8%	-2%	.
49) CCn1cc(/C=C/C(=O)Nc2ccn(Cc3c(F)c(F)c(F)c(F)c3F)n2)cn1
 : -20%	-15%	7%	-7.8%	-6%	-9%	-13%	-6%
50) Cc1cc(C)cc(OC(=O)COc2ccccc2C)c1
 : -2%[46.1 µM]	2%[46.1 µM]	10%	.	0%	-34%	-11%	.
51) C=CCn1c(NCCOC)nc2c1c(=O)n(C)c(=O)n2C
 : 9%	-9%	-1%	2.9%	-5%	4%	-11%	-2%

Source: PubChem
